Assay outcomes from PubChem BioAssay.
GIV Gai3 FP: inhibitors of GIV GBA-motif binding to rat Galpha-i3; Galpha-i3/FITC-GIV peptide fluorescence polarization, 90 min; stronger effect = lower value; scaled: aluminum fluoride 0%, vehicle 100%; percent of control (FP), % (test concentration not listed); 210,000 compounds, 0.42% hits; AID 1224905;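 active = replicate mean at 85% of control or lower, very high polarization wells dropped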;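 note: wells of about 15 µL received 100 nL stock; the first replicate is given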
Target sequence (P08753 whole entry, looked up): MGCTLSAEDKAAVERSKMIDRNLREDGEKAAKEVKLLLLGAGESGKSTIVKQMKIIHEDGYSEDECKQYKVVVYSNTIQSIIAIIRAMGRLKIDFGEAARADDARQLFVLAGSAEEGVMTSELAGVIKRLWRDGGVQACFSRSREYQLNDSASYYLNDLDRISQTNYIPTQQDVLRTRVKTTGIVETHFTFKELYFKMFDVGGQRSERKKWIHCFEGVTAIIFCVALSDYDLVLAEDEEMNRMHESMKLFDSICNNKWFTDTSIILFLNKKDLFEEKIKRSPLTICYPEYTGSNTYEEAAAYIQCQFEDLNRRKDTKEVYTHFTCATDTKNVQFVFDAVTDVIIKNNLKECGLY
Active calls of the source: *. This is a subset; count on the stated rates, not on these rows.

What do the screens show for `COc1ccc(CC(=O)Nc2oc(-c3ccccc3)c(-c3ccccc3)c2C#N)cc1`?
GIV Gai3 FP: 119

Results for COc1ccc(CN2CCCC2c2nc(C(C)C)no2)cc1 (stereo not given) ?
GIV Gai3 FP: 108

What do the screens show for `COc1cccc(NC(=O)c2sc3ncn(CC(=O)Nc4cccc(C(F)(F)F)c4)c(=O)c3c2C)c1`?
GIV Gai3 FP: 103

What do the screens show for `O=S(=O)(Nc1ccccc1-c1ccc2ccccc2n1)c1cccc(F)c1`?
GIV Gai3 FP: 104

Results for COc1ccccc1C(c1c(C)[nH]n(-c2ccccc2)c1=O)c1c(C)[nH]n(-c2ccccc2)c1=O ?
GIV Gai3 FP: 74*

What do the screens show for `CCOP(=O)(OCC)C(c1cc(C(C)(C)C)c(O)c(C(C)(C)C)c1)N1CCCCC1` (stereo not given)?
GIV Gai3 FP: 105

What do the screens show for `O=S(=O)(c1ccc(F)cc1F)N1CCc2nc[nH]c2C1`?
GIV Gai3 FP: 98

How did CCCNC(=O)N1CCc2c(c(-c3nc(C4CC4)no3)nn2C)C1 do in these assays?
GIV Gai3 FP: 101

How did CCc1onc(C)c1C1CCCN1Cc1ccccc1OC (stereo not given) do in these assays?
GIV Gai3 FP: 103

Results for CCOC(=O)c1nnn(-c2nonc2N)c1CN1CCC(=O)CC1 ?
GIV Gai3 FP: 110

How did Cc1nnc(N2C(=O)C(=O)/C(=C(/O)c3ccc(F)cc3)C2c2ccccc2F)s1 (stereo not given) do in these assays?
GIV Gai3 FP: 110

How did CC(=O)C1=C(C)NC(SCc2ccc(F)cc2)=C(C#N)[C@@H]1c1ccccc1[N+](=O)[O-] do in these assays?
GIV Gai3 FP: 103

What do the screens show for `Cc1ccc(S(=O)(=O)Nc2cccc(C(=O)N3CCC(C(=O)NCCC(C)C)CC3)c2)c(C)c1`?
GIV Gai3 FP: 103

How did O=C1CCCc2oc3c(cc(NS(=O)(=O)c4ccccc4)c4ccccc43)c21 do in these assays?
GIV Gai3 FP: 99

Results for O=C(Cn1c(=O)ccc2cc(S(=O)(=O)N3CCCC3)ccc21)N1CCN(c2ccc(F)cc2)CC1 ?
GIV Gai3 FP: 100

Structures shown so far that contain a cyano group:
What do the screens show for `COc1ccc(CC(=O)Nc2oc(-c3ccccc3)c(-c3ccccc3)c2C#N)cc1`?
GIV Gai3 FP: 119

How did CC(=O)C1=C(C)NC(SCc2ccc(F)cc2)=C(C#N)[C@@H]1c1ccccc1[N+](=O)[O-] do in these assays?
GIV Gai3 FP: 103

Further entries follow:
Results for Cc1sc(-c2nnc(C3CC3)o2)cc1NC(=O)C1CC1 ?
GIV Gai3 FP: 100

How did Cc1ccc(C23CC4CC(CC(C(N)=O)(C4)C2)C3)cc1 do in these assays?
GIV Gai3 FP: 107

How did O=C(O)CSc1nnc(-c2ccc3c(c2)OCCCO3)n1C1CC1 do in these assays?
GIV Gai3 FP: 102

Results for O=S(=O)(c1ccc2c(c1)CCCC2)N1CCC2(CC1)NCCN=C2NC1CCCCC1 ?
GIV Gai3 FP: 100

How did CN(CCc1noc(-c2ccc(C(=O)N3CCCC3)cc2)n1)C(=O)C1CC1 do in these assays?
GIV Gai3 FP: 183

How did CCOC(=O)c1cnc(NC2CC2)c2ccccc12 do in these assays?
GIV Gai3 FP: 102

What do the screens show for `CCOC(=O)c1cc(-c2ccccc2)sc1NC(=O)c1cc(OC)c(OC)c(OC)c1Br`?
GIV Gai3 FP: 110

What do the screens show for `COc1ccccc1N1CCN(S(=O)(=O)c2ccc(F)c(C(=O)Nc3ccccc3C(F)(F)F)c2)CC1`?
GIV Gai3 FP: 100

How did O=C(CNS(=O)(=O)c1ccc(F)cc1)N1CCCC1c1nc(-c2ccc(Cl)cc2)no1 (stereo not given) do in these assays?
GIV Gai3 FP: 103

Results for Cn1c(=O)c2ccn(CC(=O)N3CCC(C(N)=O)(N4CCCCC4)CC3)c2n(C)c1=O ?
GIV Gai3 FP: 99

How did CN(C)C(=O)c1ccc(-c2nnc(OCc3nc4ccccc4n3C)c3ccccc23)cc1 do in these assays?
GIV Gai3 FP: 105

Results for O=S(=O)(Nc1cccc(-c2ccc3ccccc3n2)c1)c1ccccc1Cl ?
GIV Gai3 FP: 97

What do the screens show for `COc1cc(/C=C2/C(=O)N(c3ccc(Cl)c(C(=O)O)c3)N=C2C)cc2sc(=O)oc12`?
GIV Gai3 FP: 107

Results for O=c1ccc(-c2cccc(Cl)c2)nn1CCc1nc(-c2ccccc2)no1 ?
GIV Gai3 FP: 100

What do the screens show for `COC(=O)C1=C(C(=O)OC)SC(=C2C(=S)C(C)(C)N(Cc3ccccc3)c3ccc(C)cc32)S1`?
GIV Gai3 FP: 120

How did CC1(C(=O)O)NC(c2ccccc2O)C2C(=O)N(Cc3ccccc3)C(=O)C21 (stereo not given) do in these assays?
GIV Gai3 FP: 118

What do the screens show for `COC(=O)c1cccc(NC(=O)CSc2nccc(N3CCN(c4ccc(OC)cc4)CC3)n2)c1`?
GIV Gai3 FP: 100

What do the screens show for `O=C(c1nc(-c2csc(S(=O)(=O)NCCC3=CCCCC3)c2)no1)N1CCCC1`?
GIV Gai3 FP: 98

What do the screens show for `O=C(Nc1ccc(Cl)c(Cl)c1)c1cc2n(n1)C(C(F)(F)F)CC(c1ccc3c(c1)OCO3)N2` (stereo not given)?
GIV Gai3 FP: 101

What do the screens show for `O=C(CN1C2=NCCN2c2ccccc21)c1ccc([N+](=O)[O-])cc1`?
GIV Gai3 FP: 108

What do the screens show for `COCCCNC(=O)NCCC1CCN(C(=O)Nc2cccc(Cl)c2)CC1`?
GIV Gai3 FP: 105

How did O=C(C1CC(=O)N(c2ccc3c(c2)CCN3C(=O)C2CC2)C1)N1CCC2(CC1)OCCO2 (stereo not given) do in these assays?
GIV Gai3 FP: 104

How did Cc1ccc2c(c1)-c1c(ssc1=S)C(C)(C)N2C(=O)C1CC1 do in these assays?
GIV Gai3 FP: 118

Results for O=S(=O)(c1ccc2c(c1)OCCO2)N1CCN(c2ncnc3c2nnn3-c2ccccc2)CC1 ?
GIV Gai3 FP: 98

How did CCc1ccc(S(=O)(=O)Nc2ccc3oc4c(c3c2)C(=O)CC(C)(C)C4)cc1 do in these assays?
GIV Gai3 FP: 123

How did CCOC(=O)C1=C(C)NC2=C(C(=O)C(C(=O)OCC)C(c3ccccc3OC)C2)C1c1ccc(N(CC)CC)cc1 (stereo not given) do in these assays?
GIV Gai3 FP: 103

What do the screens show for `O=C(c1ccc2c(c1)C1C=CCC1C(c1ccc(Cl)cc1)N2)N1CCOCC1` (stereo not given)?
GIV Gai3 FP: 119

Results for O=C(NCCCN1CCOCC1)C1CCN(c2cnc(N3CCSCC3)nc2)CC1 ?
GIV Gai3 FP: 99

Results for O=C(CSc1nc2ccccc2nc1Cc1ccccc1)N1CCNC1=O ?
GIV Gai3 FP: 99

Results for CC(C)c1ccc(S(=O)(=O)N2CCCC2c2nc(-c3ccc(F)cc3)no2)cc1 (stereo not given) ?
GIV Gai3 FP: 101

What do the screens show for `CCN1CCCC1CNC(=O)CN1C(=O)CN(C(=O)Nc2ccc(C)cc2)c2ccccc21` (stereo not given)?
GIV Gai3 FP: 98

What do the screens show for `Cc1ccc(-c2cn3cccnc3n2)cc1NC(=O)C1c2ccccc2Oc2ccccc21`?
GIV Gai3 FP: 98

Results for Fc1ccc(-c2nc(-c3ccc4c(c3)ncn4CCN3CCOCC3)no2)cc1 ?
GIV Gai3 FP: 105

How did CCC(=O)Nc1cccc(-c2noc(C3CCCN(C(=O)c4ccc(Br)cc4)C3)n2)c1 (stereo not given) do in these assays?
GIV Gai3 FP: 108

What do the screens show for `O=C(Nc1cc(F)cc(F)c1)c1cccc(-c2cc(N3CCCC3)ncn2)c1`?
GIV Gai3 FP: 107

How did Cc1ccc(-c2nc(CN3CCCC(C(=O)Nc4cc(Cl)ccc4C)C3)no2)cc1 (stereo not given) do in these assays?
GIV Gai3 FP: 104

What do the screens show for `CCOC(=O)c1c(C)c(CCC(=O)N2CCN(c3ccccn3)CC2)c(C)n1C`?
GIV Gai3 FP: 104

Results for Cc1c(S(=O)(=O)N2CCC(C)CC2)c(C)n(C)c1-c1nnc(C2CCC2)o1 ?
GIV Gai3 FP: 102

What do the screens show for `Cc1cc(S(=O)(=O)N2CCCN(S(=O)(=O)c3ccc(Cl)c(C)c3)CC2)ccc1Cl`?
GIV Gai3 FP: 99

How did CC(=O)Nc1ccc(Br)cc1-c1nc2cc3ccccc3cc2[nH]c1=O do in these assays?
GIV Gai3 FP: 108

How did Cc1ccc(COc2ccc(C3CC(=O)Nc4c3c(C)nn4-c3ccc4nnc(C)n4n3)cc2)cc1 (stereo not given) do in these assays?
GIV Gai3 FP: 96

Results for COc1ccc(C(=O)NCCc2c(C)[nH]c3ccc(OCc4ccccc4)cc23)cc1OC ?
GIV Gai3 FP: 106

Results for COc1ccccc1/C=C1\N=C(c2ccc(OC)c(OC)c2)N(c2cccc(F)c2)C1=O ?
GIV Gai3 FP: 118

How did Brc1ccc(-c2nc3ccc(Cc4ccc5nc(-c6ccc(Br)cc6)c(-c6ccc(Br)cc6)nc5c4)cc3nc2-c2ccc(Br)cc2)cc1 do in these assays?
GIV Gai3 FP: 104

Results for Cc1ccc(Cn2c(=O)c3c(ncn3C)n(C)c2=O)cc1 ?
GIV Gai3 FP: 109

Retrieved by compound from the entries so far:
What do the screens show for `CCOC(=O)c1c(C)c(CCC(=O)N2CCN(c3ccccn3)CC2)c(C)n1C`?
GIV Gai3 FP: 104

How did CCC(=O)Nc1cccc(-c2noc(C3CCCN(C(=O)c4ccc(Br)cc4)C3)n2)c1 (stereo not given) do in these assays?
GIV Gai3 FP: 108

What do the screens show for `CCN1CCCC1CNC(=O)CN1C(=O)CN(C(=O)Nc2ccc(C)cc2)c2ccccc21` (stereo not given)?
GIV Gai3 FP: 98

Part of the list above in order of formula weight, largest number first:
How did Brc1ccc(-c2nc3ccc(Cc4ccc5nc(-c6ccc(Br)cc6)c(-c6ccc(Br)cc6)nc5c4)cc3nc2-c2ccc(Br)cc2)cc1 do in these assays?
GIV Gai3 FP: 104

What do the screens show for `Cc1cc(S(=O)(=O)N2CCCN(S(=O)(=O)c3ccc(Cl)c(C)c3)CC2)ccc1Cl`?
GIV Gai3 FP: 99

Results for COc1ccc(C(=O)NCCc2c(C)[nH]c3ccc(OCc4ccccc4)cc23)cc1OC ?
GIV Gai3 FP: 106

What do the screens show for `Cc1ccc(-c2cn3cccnc3n2)cc1NC(=O)C1c2ccccc2Oc2ccccc21`?
GIV Gai3 FP: 98

Results for Fc1ccc(-c2nc(-c3ccc4c(c3)ncn4CCN3CCOCC3)no2)cc1 ?
GIV Gai3 FP: 105

Continuation.
Results for CCc1nc(SCc2noc(CCC(=O)Nc3nccs3)n2)n[nH]1 ?
GIV Gai3 FP: 103

Results for Cc1cc(C)cc(NC(=O)N2CCCC2c2cc(C(C)C)on2)c1 (stereo not given) ?
GIV Gai3 FP: 102

How did CN1C=C(c2ccc3ccccc3n2)C(C[N+](=O)[O-])c2ccccc21 (stereo not given) do in these assays?
GIV Gai3 FP: 115

Results for O=C(c1cc2cc(Br)ccc2[nH]1)N1CCN(C(=O)c2ccccc2F)CC1 ?
GIV Gai3 FP: 102

How did O=c1n(Cc2cccc(Br)c2)nc2c(S(=O)(=O)N3CCOCC3)cccn12 do in these assays?
GIV Gai3 FP: 106

How did CN(c1ccc2sc(C(=O)N3CCN(c4ccccc4)CC3)cc2c1)S(=O)(=O)c1ccccc1 do in these assays?
GIV Gai3 FP: 107

What do the screens show for `CCOC(=O)N1CCN(C(=O)c2c[nH]c3ccc(S(=O)(=O)N(CC)c4ccc(F)cc4)cc3c2=O)CC1`?
GIV Gai3 FP: 104

What do the screens show for `Cc1ccc(-c2nc(C3CCN(S(=O)(=O)c4ccccc4)CC3)no2)cc1`?
GIV Gai3 FP: 107

What do the screens show for `Cc1ccc(C23CC4CC(CC(CNC(=O)CC56CC7CC(C5)CC(CC(=O)NCC58CC9CC(C5)CC(c5ccc(C)cc5)(C9)C8)(C7)C6)(C4)C2)C3)cc1`?
GIV Gai3 FP: 114

Results for Cc1ccc(C2OC3(C(=O)c4ccccc4C3=O)C3C(=O)N(c4ccc(F)cc4)C(=O)C23)cc1 (stereo not given) ?
GIV Gai3 FP: 105

What do the screens show for `Cc1nc2oc(C(=O)c3ccc(Br)cc3)c(N)c2c2c1COC(C)(C)C2`?
GIV Gai3 FP: 105

How did COc1ccc(N2C(=O)c3ccccc3NC2c2ccc(OC)c(Cn3nnc4ccccc43)c2)cc1 (stereo not given) do in these assays?
GIV Gai3 FP: 103

Results for Brc1ccc(Nc2nc3nonc3nc2N2CCN(Cc3ccccc3)CC2)cc1 ?
GIV Gai3 FP: 99

Results for O=C(c1csc(N2CCCC2)n1)N1CCCC1 ?
GIV Gai3 FP: 105

How did Cc1nc(CN2C(=O)COc3ccc(S(=O)(=O)NC4CC4)cc32)no1 do in these assays?
GIV Gai3 FP: 108

What do the screens show for `O=C(NCc1ccc2c(c1)OCO2)c1cccc(-c2nc(-c3ccc(F)cc3)no2)c1`?
GIV Gai3 FP: 100

Results for Nc1c(C(=O)Nc2cccc(F)c2)sc2nc3c(c(-c4ccco4)c12)CCCC3 ?
GIV Gai3 FP: 108

How did CC1(C)CC(=O)C2=C(C1)N(c1ccccc1)C(=O)CC2c1ccc2c(c1)OCO2 (stereo not given) do in these assays?
GIV Gai3 FP: 108

How did COc1cccc(C(=O)N2CCN(Cc3nc4cc(C(=O)N5CCCC5)ccc4n3C)CC2)c1 do in these assays?
GIV Gai3 FP: 104

What do the screens show for `c1cn(Cc2noc(CC3CCCCC3)n2)cn1`?
GIV Gai3 FP: 100

Results for CCCn1c(=O)c(N2CCC(NC(=O)Nc3ccccc3F)CC2)nc2ccccc21 ?
GIV Gai3 FP: 99

Results for Cc1ccc2c(c1)-c1c(sn(-c3ccc(Cl)c(Cl)c3)c1=S)C(C)(C)N2C ?
GIV Gai3 FP: 103

Results for Cc1ccc2c(c1)N(C(=O)C1CCN(S(=O)(=O)c3cccnc3)CC1)CCO2 ?
GIV Gai3 FP: 108

How did Cc1cc(-c2ccc(=O)[nH]n2)cc(S(=O)(=O)NCc2ccccn2)c1C do in these assays?
GIV Gai3 FP: 104

What do the screens show for `COc1ccc(C(C)=O)cc1CSc1nc2cc(C(=O)N3CCC(C(N)=O)CC3)ccc2c2nc3ccccc3n12`?
GIV Gai3 FP: 108
